NPYLR7 ag: mosquito NPYLR7 agonism | activation, % at 10 µM | HEK293T NPYLR7/Galpha15, GCaMP6s calcium fluorescence | 270,000 tested, 0.15% active; in the data active = activation above about 40%;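 note: 0% = vehicle and 100% = reference agonist at the receptor; some compounds past the cut are filed as inactive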
NPYLR7 ag max-min: further read-out of NPYLR7 ag, marked with its call; activation, %; measured here: Max-Min RFU normalised activation; some inactives read as strong as hits;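 span of the calcium signal over five minutes; 0% = vehicle and 100% = native peptide agonist; compound fluorescence can raise it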
* hit, by the source's call.

1. CC1=NN(C(=O)c2cccc(C)c2O)C(O)(C(F)(F)F)C1 (stereo not drawn)
2. Cc1cccc(CSc2ncnc3c2nnn3Cc2ccc(F)cc2)c1
3. Cc1ccccc1OCCn1ncc2ccccc2c1=O
4. CNC(=O)c1ccc(NC(=O)COC(=O)C2CCCCC2C(F)(F)F)cc1 (stereo not drawn)
5. C=CCN(Cc1nccn1Cc1ccc(Cl)c(Cl)c1)C(=O)C(C)C
6. O=C1Nc2c(c(=O)[nH]c(=S)n2Cc2ccccc2)C(C(F)(F)F)(C(F)(F)F)N1
7. CCOC(=O)c1cc(-c2ccc(N3CCN(C(=O)c4oc5ccccc5c4C)CC3)cc2)n(-c2ccccn2)n1
8. COC(=O)CCn1c(=O)c2c(nc3n(Cc4ccco4)c(C)cn23)n(C)c1=O
compound no.,1,2,3,4,5,6,7,8
NPYLR7 ag,-3,17,14,5,2,-3,27,-2
NPYLR7 ag max-min,-5,18,13,2,9,-10,19,19

Single records, from the list above. Screens in order: NPYLR7 ag | NPYLR7 ag max-min
Profile of CNC(=O)c1ccc(NC(=O)COC(=O)C2CCCCC2C(F)(F)F)cc1 (stereo not drawn) → 5 | 2
Profile of CC1=NN(C(=O)c2cccc(C)c2O)C(O)(C(F)(F)F)C1 (stereo not drawn) → -3 | -5
Profile of Cc1cccc(CSc2ncnc3c2nnn3Cc2ccc(F)cc2)c1 → 17 | 18
Profile of COC(=O)CCn1c(=O)c2c(nc3n(Cc4ccco4)c(C)cn23)n(C)c1=O → -2 | 19

(more compounds)
9. COc1ccc2nc(N(CCCn3ccnc3)C(=O)c3ccc(Cl)s3)sc2c1
10. CCOC(=O)c1sc(NC(=O)COc2ccccc2)c(C#N)c1C
11. COc1ccc(-c2ccc(=O)n(CCCC(=O)N3c4ccccc4CC3C)n2)cc1OC (stereo not drawn)
12. Cc1cccc(Cn2c(=O)c(C(=O)Nc3ccc(F)cc3)nn(-c3ccc(F)cc3)c2=O)c1
13. CN1CCC2(CC1)CN(C(=O)COCC1CCCO1)CCCN2C (stereo not drawn)
14. Cc1onc(-c2c(F)cccc2Cl)c1C(=O)NC1CCSC1=O (stereo not drawn)
15. CN(C)C(=O)c1ccc(N2CCC(NC3CCCc4ccccc43)CC2)cc1 (stereo not drawn)
16. Cc1ccc2c(C(=O)NC(C)Cc3ccncc3)cc(C)nc2c1 (stereo not drawn)
compound no.,9,10,11,12,13,14,15,16
NPYLR7 ag,-12,1,4,3,6,1,4,1
NPYLR7 ag max-min,-18,-1,4,5,4,4,5,-6

17. NC(=O)c1nnn([C@H]2C[C@H]3C(=O)N4CC[C@H](NC(=O)C5CCC5)[C@H]4C(=O)N3C2)c1C(N)=O
18. CCOc1ccc(C(=O)Nc2cccc(-c3nc4ccc(C)cc4o3)c2)cc1Cl
19. O=S(=O)(c1ccc(Cl)cc1)c1cnc2ccc(F)cc2c1N1CCOCC1
20. Cc1cnc(CNC(=O)c2cn(CC3CCCNC3)nn2)cn1 (stereo not drawn)
21. Cc1cccc(-c2noc(N3CCCC3)c2CN(CC(O)COCc2ccccc2)C(C)C)c1 (stereo not drawn)
22. COc1ccc(-n2cccn2)c(CN2C[C@@H]3[C@@H]4CC[C@@H](C4)[C@@H]3C2)c1
23. COc1cc(C2C3C(=O)N(c4ccccc4C(F)(F)F)C(=O)C3ON2c2ccccc2)ccc1O (stereo not drawn)
24. CCOCCCN(CC(=O)N(CCc1ccccc1)Cc1ccc(C)o1)Cc1cccc(C(=O)OC)c1
compound no.,17,18,19,20,21,22,23,24
NPYLR7 ag,-6,-1,7,-4,-5,-1,-3,1
NPYLR7 ag max-min,-15,-7,5,-9,7,1,-10,3

25. CN(Cc1cccc(F)c1)C(=O)CN1C(=O)NC(Cc2ccccc2)C1=O (stereo not drawn)
26. O=C(Cc1ccsc1)NC1CC(=O)N(CCc2ccccc2)C1 (stereo not drawn)
27. O=C(COc1ccc(F)cc1F)Nc1cc(F)ccc1F
28. CCCn1c(=O)c(C(=O)Nc2ccc(Cl)cc2)c(O)c2ccccc21
29. CCOc1ccc(-n2c(C)cc3c2CCC(C(=O)C(F)(F)F)=C3O)cc1
30. Cn1cccc1C(=O)N1CCC(CCc2ccc3c(c2)OCO3)CC1
31. Cc1nc2ccccn2c(=O)c1NC(=O)Cc1ccc(F)cc1
32. CCOC(=O)c1c(C)c(C(=O)NC2CC(C)CC(C)(C)C2)c(C)n1CC (stereo not drawn)
compound no.,25,26,27,28,29,30,31,32
NPYLR7 ag,2,7,11,-2,9,2,-5,11
NPYLR7 ag max-min,-3,2,8,-10,3,17,-5,17

33. O[C@@H]1CN(Cc2ccncc2Cl)CC[C@H]1c1ccc2c(c1)OCO2
34. CCOC(=O)/C(C#N)=C1/C=CN(c2ccc(C)cc2)C=N1
35. CCn1cccc(-c2nnc(SCC(=O)NCc3ccccc3Cl)n2C)c1=O
36. Nn1c(SCC(=O)Nc2cccc(Cl)c2Cl)nnc1-c1ccc(Cl)cc1
37. O=C(NC1CCCCC1)N1CCN(c2ccc3nnc(C4CC4)n3n2)CC1
38. FC(F)(F)c1cccc(CCC2CCCNC2)c1 (stereo not drawn)
39. COc1cncc(-c2cc(Cl)ccc2OC)c1
40. COc1ccccc1C(=O)N1CCN(c2nc(-c3cccc(C(F)(F)F)c3)nc(C)c2Cc2ccccc2)CC1
compound no.,33,34,35,36,37,38,39,40
NPYLR7 ag,49*,-10,4,15,6,5,-1,-6
NPYLR7 ag max-min,48*,-15,3,6,13,2,-4,3

41. Cc1ccc(F)c(CNC(=O)C2CCC(=O)N(CCN3CCOCC3)C2)c1F (stereo not drawn)
42. Cc1cccc(-c2noc(C3CCN(C(=O)c4ccc(Cl)nc4)CC3)n2)c1
43. CCCCCN(C(=O)c1ccccc1C)C(CC)c1nc2ccccc2c(=O)n1-c1cccc(C)c1 (stereo not drawn)
44. CCOc1ccc(-n2ccn3c(CC(C)CC(=O)NCc4cccc(OC)c4)nnc3c2=O)cc1 (stereo not drawn)
45. N#Cc1cnn(C(=O)c2ccc(SC(F)F)cc2)c1N
46. COCCNC(=O)c1cc(NC(=O)Nc2cccc(F)c2)ccc1N1CCC(Cc2ccccc2)CC1
47. Cc1nc(NCCNS(=O)(=O)c2ccccc2Cl)cc(-n2cccn2)n1
48. Cn1c(=O)[nH]c(=O)c2c1nc(Br)n2CCCc1ccccc1
compound no.,41,42,43,44,45,46,47,48
NPYLR7 ag,-1,2,0,9,-9,12,-7,2
NPYLR7 ag max-min,-2,-3,5,3,-10,18,-14,32

49. CC(C)c1nc(CN2CCc3onc(-c4cccc(F)c4)c3C2)no1
50. Cc1cccc(NC(=O)c2c(N)n(/N=C\c3ccncc3)c3nc4ccccc4nc23)c1
51. COc1ccc(-c2cccc(-c3ccc(NC(=O)c4c(F)c(F)c(F)c(F)c4F)cc3)n2)cc1
52. CC1(C(=O)NS(=O)(=O)c2ccc(Br)cc2)CCN1C(=O)CCc1ccccc1 (stereo not drawn)
53. O=C(CSc1ncnc2sc3c(c12)CCCC3)Nc1ccccc1
54. C=CCNC(=O)CSc1nc2ncc(Cl)cc2[nH]1
55. COc1ccc(CSc2nnc(C)s2)cc1F
56. Cc1nn(C)c(C)c1NC(=O)c1cccc(CN(C)C(C)c2ccco2)c1 (stereo not drawn)
compound no.,49,50,51,52,53,54,55,56
NPYLR7 ag,-6,12,-6,3,-7,-1,-4,2
NPYLR7 ag max-min,-13,3,-6,0,-9,-5,-7,12

Next part (4 carried over from the part before).
53. O=C(CSc1ncnc2sc3c(c12)CCCC3)Nc1ccccc1
54. C=CCNC(=O)CSc1nc2ncc(Cl)cc2[nH]1
55. COc1ccc(CSc2nnc(C)s2)cc1F
56. Cc1nn(C)c(C)c1NC(=O)c1cccc(CN(C)C(C)c2ccco2)c1 (stereo not drawn)
57. N#Cc1cccc(NC(=O)CN2CCC3(CC2)CC(=O)c2c(ccc4ccccc24)O3)c1
58. CC1CCCN(c2cc(C(=O)NC3CCCc4ccccc43)c3ccccc3n2)C1 (stereo not drawn)
59. COC(=O)Cn1cnc(-c2ccc(F)cc2)cc1=O
60. CC(=O)N[C@H]1C[C@@H](CC(C)C)O[C@@H](CCc2ccccc2)C1
61. CCOc1cccc(N2CCN(C(=O)C(C)C)C(C)C2=O)c1 (stereo not drawn)
62. CC(=O)CCCCC(=O)N1CCC2(CC1)Nc1ccccc1C(=O)N2C1CCCC1
63. O=C(CCN1C(=O)c2ccccc2C1=O)Nc1ccccc1Cl
64. COc1cccc(NC(=O)N[C@H]2[C@H](O)[C@@H](N(C)CCc3ccccn3)[C@@H]3OC[C@H]2O3)c1
compound no.,53,54,55,56,57,58,59,60,61,62,63,64
NPYLR7 ag,-7,-1,-4,2,7,12,-19,-6,24,0,6,-4
NPYLR7 ag max-min,-9,-5,-7,12,2,21,-22,-10,25,14,1,-8

Reprinted at random: three records from the list.
57. N#Cc1cccc(NC(=O)CN2CCC3(CC2)CC(=O)c2c(ccc4ccccc24)O3)c1
61. CCOc1cccc(N2CCN(C(=O)C(C)C)C(C)C2=O)c1 (stereo not drawn)
63. O=C(CCN1C(=O)c2ccccc2C1=O)Nc1ccccc1Cl
compound no.,57,61,63
NPYLR7 ag,7,24,6
NPYLR7 ag max-min,2,25,1

Later entries:
65. COCCn1c(CN2CCCCC2)nc2c1c(=O)n(C)c(=O)n2C
66. COc1ccc(C(=O)N(C)c2nnc(C34CC5CC(CC(C5)C3)C4)s2)cc1OC
67. O=C(c1ccc(=O)n(Cc2cccc(F)c2)n1)N1CCc2ccccc21
68. CC1CCN(C(=O)c2ccccc2N2CCC(NC(=O)c3ccc(F)cc3)CC2)CC1
69. O=C(c1cc(-c2ccccc2Cl)nn1-c1cccc([N+](=O)[O-])c1)N1CCN(C(c2ccccc2)c2ccccc2)CC1
70. O=C(/C=C/c1ccc(F)cc1)Nc1nc2ccccc2s1
71. Cc1ccc(S(=O)(=O)N2CCCCC2C(=O)N2CCCCCC2)cc1 (stereo not drawn)
72. O=c1[nH]c2c(-c3ccccc3)c(O)cn2c2c1sc1ccccc12
compound no.,65,66,67,68,69,70,71,72
NPYLR7 ag,17,-1,2,17,1,-11,-2,0
NPYLR7 ag max-min,13,-3,-1,10,13,-20,-6,-1

73. Cc1[nH]n2c(=O)c3c(nc2c1-c1ccc(F)cc1)CCC3
74. Cc1ccc(NC(=O)CSc2nccn3nc(-c4ccc(F)cc4)cc23)cc1Cl
75. Cc1nc2ncnn2c(C)c1CC(=O)Nc1nccs1
76. CN1CC2(CCCN(Cc3nnc(-c4ccco4)o3)CC2)OC1=O (stereo not drawn)
77. Cc1[nH]n(-c2ccccc2)c(=O)c1[N+]#N
78. CN1CCc2c(C#N)c(NCC3CCCO3)n3cnnc3c2C1 (stereo not drawn)
79. N#CCCN(Cc1ccco1)S(=O)(=O)c1cccc(C(=O)O)c1
80. CN1CCN(S(=O)(=O)c2ccc(NCC(c3ccco3)N3CCCCC3)nc2)CC1 (stereo not drawn)
compound no.,73,74,75,76,77,78,79,80
NPYLR7 ag,-5,-1,3,10,10,0,-2,8
NPYLR7 ag max-min,-6,-5,7,5,3,19,-1,1

81. O=C(Cn1nnc2ccccc2c1=O)NCc1cccnc1
82. CCn1ccnc1CNC(=O)c1coc(COc2cccc(C(F)(F)F)c2)n1
83. C=CCNC(=O)NC1CCN(c2ccccc2C(=O)NCc2ccc3c(c2)OCO3)CC1
84. Cc1nc(CN(C(=O)c2ccc(C3CCCO3)s2)C(C)C)no1 (stereo not drawn)
85. NC(N)=NCc1ccc(CN2CCOCC2)cc1
86. CCOC(=O)c1c(NC(C)=O)sc(I)c1-c1ccccc1
87. CCOC(=O)C1CCN(C(c2ccc(C)cc2)C2Sc3nc(C)nn3C2=O)CC1 (stereo not drawn)
88. CC(=O)CSc1nc2ccccc2c(=O)n1Cc1ccco1
compound no.,81,82,83,84,85,86,87,88
NPYLR7 ag,3,-2,0,-3,2,0,-1,-4
NPYLR7 ag max-min,3,-8,10,-4,1,-7,-2,-5

89. COc1ccc(NC2CCCN(C(=O)CCCN3CCCC3=O)C2)cc1OC (stereo not drawn)
90. O=C(COC(=O)C12CC3CC(CC(C3)C1)C2)Nc1c(F)c(F)c(F)c(F)c1F
91. c1ccc(OCc2noc(CN3CCC(c4ccncc4)CC3)n2)cc1
92. CC(C)CN1CCC(NCC(C)Oc2cccnc2)CC1 (stereo not drawn)
compound no.,89,90,91,92
NPYLR7 ag,5,-1,17,-1
NPYLR7 ag max-min,1,-1,2,8

Bioassay records as filed in PubChem.

Some of the compounds tested, so the mix of outcomes need not match the whole.
